KCNQ2 inh: KCNQ2 channel blockers in CHO-K1 cells – cell-based, FluxOR thallium flux, B-score, primary screen (AID 2156); O88943; 20 min; hits give low values; only compounds with negative scores are shown here; some inactives read as strong as hits; B-score at 10 µM; actives 1.1% (n = 310,000);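 active means fluorescence ratio B-score at most minus 3 library SDs, with starting brightness B-score within 2 library SDs, cut at about -5.5 in these data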
Target sequence (O88943 whole entry, looked up): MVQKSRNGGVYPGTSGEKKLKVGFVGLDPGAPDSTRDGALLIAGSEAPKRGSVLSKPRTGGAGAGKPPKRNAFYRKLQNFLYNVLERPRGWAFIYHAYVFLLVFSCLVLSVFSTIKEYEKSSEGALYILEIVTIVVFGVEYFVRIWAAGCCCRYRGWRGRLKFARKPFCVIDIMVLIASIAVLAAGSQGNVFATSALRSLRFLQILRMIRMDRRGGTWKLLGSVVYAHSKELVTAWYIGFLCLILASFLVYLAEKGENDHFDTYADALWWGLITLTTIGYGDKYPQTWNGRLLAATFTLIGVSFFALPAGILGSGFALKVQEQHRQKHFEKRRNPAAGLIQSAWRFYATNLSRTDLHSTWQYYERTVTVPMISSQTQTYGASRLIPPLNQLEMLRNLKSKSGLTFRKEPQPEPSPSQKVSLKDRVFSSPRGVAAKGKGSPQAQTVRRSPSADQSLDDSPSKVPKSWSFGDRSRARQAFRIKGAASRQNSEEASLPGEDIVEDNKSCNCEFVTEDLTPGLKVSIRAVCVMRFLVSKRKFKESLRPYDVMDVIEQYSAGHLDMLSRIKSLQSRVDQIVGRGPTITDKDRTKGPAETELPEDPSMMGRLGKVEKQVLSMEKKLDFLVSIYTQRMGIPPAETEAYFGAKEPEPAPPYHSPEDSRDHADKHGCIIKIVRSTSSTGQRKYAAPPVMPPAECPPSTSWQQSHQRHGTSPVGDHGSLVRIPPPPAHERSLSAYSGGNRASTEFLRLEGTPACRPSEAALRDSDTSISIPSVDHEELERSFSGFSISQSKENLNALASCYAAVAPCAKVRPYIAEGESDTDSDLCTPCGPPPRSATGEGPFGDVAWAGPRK
KCNQ2 inh baseline: also measured in KCNQ2 inh; calls as there; B-score; measured here: initial fluorescence intensity artifact check;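 brightness before thallium and not channel activity; 0 = typical well and far values either way flag optical interference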
* hit, by the source's call; i = inactive. This is a subset; the hit share may differ from the screen's.

KCNQ2 inh,KCNQ2 inh baseline,smiles
i,0.07,O=C(N/N=C/c1cccc(O)c1)c1cc(-c2ccccc2)nc2ccccc12
i,-2.2,Clc1ccccc1Cn1nnc(-c2cccs2)n1
i,4.2,COc1ccc(OC)c(S(=O)(=O)NC(N)=NCCc2ccccc2OC)c1
i,-1.8,CN(C)CCN(Cc1ccco1)C(=O)c1oc2ccccc2c1NC(=O)COc1ccccc1
i,-0.72,CC(=O)N1N=C(c2ccc3ccccc3c2)OC1(C)C
i,1.6,COc1cc([N+](=O)[O-])cc2sc(NC(=O)c3c(F)cccc3F)nc12
i,-0.22,COc1cc(C(=O)O)cc(NC(=O)c2cccs2)c1OC
i,0.19,COC(=O)c1ccc2c(=O)n(Cc3ccc(C(=O)NCCCN4CCOCC4)cc3)c(=S)[nH]c2c1
i,2.3,CN=c1sc2ccccc2n1CC(O)c1ccccc1 (stereo not given)
i,-1.1,O=C(c1ccc(Cl)c([N+](=O)[O-])c1)N1CCN(C(=O)c2ccco2)CC1
i,0.93,FC(F)(F)c1cnc(COc2ccc(Cl)cc2Cl)c(Cl)c1
i,3.5,O=C(O)COc1ccc(Br)cc1/C=N/O
i,2,CCOc1ccc(NC(=O)CCS(=O)(=O)c2cccc3nsnc23)cc1
i,1.7,O=C(Nc1ccc(O)cc1)c1ccc(NC(=O)c2cccs2)cc1
i,-0.82,CC(O)[C@H]1CNCCN1CCc1cccc2ccccc12 (stereo not given in full)
i,-0.17,O=C(OCc1nc2scc(-c3ccccc3)c2c(=O)[nH]1)c1cccc([N+](=O)[O-])c1
i,2.3,COc1cc(C2C(C(C)=O)=C(O)C(=O)N2CCc2ccc(OC)c(OC)c2)ccc1O (stereo not given)
i,-1.9,O=C(CC(Cc1ccccc1)c1ccco1)NC1CCCCC1 (stereo not given)
i,3.4,COc1ccc(/C=C(\C#N)C(=O)OCC(=O)NC(=O)NCCC(C)C)cc1
i,2.1,Cc1c(N2C(=O)CSC2c2ccccc2)c(=O)n(-c2ccccc2)n1C (stereo not given)
i,-1,Cc1ccccc1Oc1ccc(NC(=O)C2CC=CCC2C(=O)O)cc1 (stereo not given)
i,-0.56,CCN(CC)S(=O)(=O)c1ccc(N2CCCC2)c(NC(=O)CN2C(=O)NC3(CCCC3)C2=O)c1
i,-0.48,O=C(NC1(C(F)(F)F)NC(=O)N(C2CCCCC2)C1=O)c1cccs1 (stereo not given)
i,-0.08,CCC1CCCCN1CCCNC(=O)c1cn(CC)c2ccc(S(=O)(=O)N3CCc4ccccc4C3)cc2c1=O (stereo not given)
i,1.3,COc1ccccc1N1CCN(c2ccc([N+](=O)[O-])cc2Cl)CC1
i,0.15,CCN(C(=O)CSC1=Nc2ccccc2C2CC=NN12)C1CCS(=O)(=O)C1 (stereo not given)
i,0.9,Cc1ccccc1C(=O)NC1CCN(CC(=O)Nc2c(C)cccc2C)CC1
i,0.19,Cc1ccc(OCc2n[nH]c(=S)n2C2CCCCC2)cc1
i,0.97,NC(Cc1ccc(O)cc1)c1cn([C@@H](CCC(=O)O)C(=O)N2CCNCC2)nn1 (stereo not given in full)
i,0.03,CCOC(=O)C1CCN(c2ncnc3nc[nH]c23)CC1

Ordered by formula weight (largest number first): part of the list above.
KCNQ2 inh,KCNQ2 inh baseline,smiles
i,-0.17,O=C(OCc1nc2scc(-c3ccccc3)c2c(=O)[nH]1)c1cccc([N+](=O)[O-])c1
i,0.97,NC(Cc1ccc(O)cc1)c1cn([C@@H](CCC(=O)O)C(=O)N2CCNCC2)nn1 (stereo not given in full)
i,-0.48,O=C(NC1(C(F)(F)F)NC(=O)N(C2CCCCC2)C1=O)c1cccs1 (stereo not given)
i,2.1,Cc1c(N2C(=O)CSC2c2ccccc2)c(=O)n(-c2ccccc2)n1C (stereo not given)
i,-1.1,O=C(c1ccc(Cl)c([N+](=O)[O-])c1)N1CCN(C(=O)c2ccco2)CC1
i,-0.82,CC(O)[C@H]1CNCCN1CCc1cccc2ccccc12 (stereo not given in full)

Molecules shown so far with a thiophene ring, fused or not:
KCNQ2 inh,KCNQ2 inh baseline,smiles
i,-2.2,Clc1ccccc1Cn1nnc(-c2cccs2)n1
i,-0.22,COc1cc(C(=O)O)cc(NC(=O)c2cccs2)c1OC
i,1.7,O=C(Nc1ccc(O)cc1)c1ccc(NC(=O)c2cccs2)cc1
i,-0.17,O=C(OCc1nc2scc(-c3ccccc3)c2c(=O)[nH]1)c1cccc([N+](=O)[O-])c1
i,-0.48,O=C(NC1(C(F)(F)F)NC(=O)N(C2CCCCC2)C1=O)c1cccs1 (stereo not given)

Further entries follow.
KCNQ2 inh,KCNQ2 inh baseline,smiles
i,-1.9,Brc1ccc2c(c1)[C@H]1OCC[C@H]1[C@@H](c1cccs1)N2
i,-1.8,Cc1nnc(NC(=O)CSC2=NN3CCCC(=O)N=C3S2)s1
i,-0.37,COCCOC(=O)c1c(C)oc2ccc(OCC=C(C)C)cc12
i,-1.9,O=C(Cn1nc2n(c1=O)-c1ccccc1SC2)N/N=C/c1cccs1
i,-3,CCOC(=O)C1(Cc2ccccc2C(F)(F)F)CCN(C(=O)c2cc(C(C)=O)n[nH]2)CC1
i,2.3,C=C(C)CSc1nnc(-c2ccc(OC)c(OC)c2)n1N
i,0.05,CNC1(c2nnnn2-c2ccccc2C)CCOC(C)(C)C1 (stereo not given)
i,2.1,COc1ccccc1CNC(=O)c1cc(-c2ccccc2)nn1CC1CC(c2cccc([N+](=O)[O-])c2)=NO1 (stereo not given)
i,-0.37,CCn1c(=NC(=O)c2ccco2)sc2cccc(F)c21
i,0.11,COc1ccc(N2C(=NC(=O)C3CCCO3)SC3CS(=O)(=O)CC32)cc1 (stereo not given)
i,-0.05,CSc1ccccc1NC(=O)CN(C)CC(=O)Nc1ccc(Cl)cc1F
i,0.08,CC(=O)N1CCN(S(=O)(=O)c2cccc(C(=O)NNC(=O)Cn3ccc(C(F)(F)F)n3)c2)CC1
i,-0.38,O=c1c2nnn(Cc3ccccc3)c2ncn1-c1ccccc1
i,0.04,O=C(OCC(=O)N1CCCC1=O)c1cc(S(=O)(=O)N2CCOCC2)ccc1Cl
i,0.76,Cc1ccc(C)c(N(C(=O)c2nsc(Cl)c2Cl)C(C(=O)NC2CCCC2)c2ccc(O)cc2)c1 (stereo not given)
i,-0.53,C(=C\c1cccc2ccccc12)/c1nnc(-c2cccs2)o1
i,-0.21,CCOc1cccc(OCCCCN2CCCCC2)c1
i,-0.99,O=C(Cn1c(-c2cncs2)nc2ccccc21)NCCc1ccccc1
i,0.1,CCc1ncc(C(O)c2cccc3ccccc23)n1C (stereo not given)
i,-0.38,CC(C)(C)c1cc(CN2CCC(O)CC2)cc(C(C)(C)C)c1O
i,0.67,OC1CCN(c2ncnc3nc[nH]c23)CC1
i,-0.37,O=C(O)c1ccc(NCc2cccs2)cc1
i,-1.3,O=C(NC12CC3CC(CC(C3)C1)C2)c1ccc(-c2cccc(Cl)c2)o1
i,1.8,COc1ccc2cc(C3(C)NC(=O)N(CC(=O)NCc4ccco4)C3=O)ccc2c1 (stereo not given)
i,-0.68,CCOC(=O)N1CCN(S(=O)(=O)c2ccc(C)cc2)C1c1ccccc1 (stereo not given)
i,-0.57,COC(=O)c1ccccc1NC(=O)COC(=O)c1ccccc1N=Nc1ccc(N(C)C)cc1
i,-0.17,CC(SCc1ccccc1)C(=O)NN=C1CCN(C)CC1 (stereo not given)
i,2.3,Cc1cccc(NC(=O)C2CCCN(S(=O)(=O)c3ccc4[nH]c(=O)ccc4c3)C2)n1 (stereo not given)
i,-1,O=C(c1ccc(N2CN(C(=O)c3ccco3)c3nc4ccccc4nc32)cc1)N1CCOCC1
i,-1.5,C/C(=N\n1c(C)nc2ccccc2c1=O)c1ccc(C)o1
i,0.42,CCCC12CN3CCN(CC(C3)/C1=N\NC(=O)c1ccc(F)cc1)C2
i,-0.84,CCN(CC(=O)NC1CCS(=O)(=O)C1)c1nc(-c2ccccc2)nc2ccccc12 (stereo not given)
i,1,COC(=O)c1cccc(NC(=S)Nc2cccc(Cl)c2Cl)c1
i,0.64,COCCCN(C(C)=O)c1nc(-c2ccc(OC)cc2)cs1
i,-0.26,Cc1c(NC(=O)C2CCCN(S(=O)(=O)c3cnc[nH]3)C2)c(=O)n(-c2ccccc2)n1C (stereo not given)
i,-0.3,Cn1c(SCc2cccnc2)nc2cccnc21
i,0.92,COc1cccc(/C=C/C(=O)OCC(=O)Nc2ccc(N3CCOCC3)cc2)c1OC
i,1.8,CC(=O)N1c2ccc(S(=O)(=O)N3CCC(C(=O)Nc4cc(C)ccn4)CC3)cc2CC1C (stereo not given)
i,1.2,O=C(N/N=C/C=C/c1ccco1)c1ccccc1Cl
i,-0.52,CCn1c(SCC(=O)N/N=C/c2c[nH]c3ccccc23)nnc1-c1ccc(C(C)(C)C)cc1
i,-1.8,CC(C)CC1Nc2ncnc(N3CCCCC3)c2N(Cc2ccccc2)C1=O (stereo not given)
i,1.4,CCOc1ccc(NC(=O)c2ccccc2SC)cc1
i,-0.82,Cc1cc(C(=O)NNC(=O)Cc2ccc(Cl)cc2)c(C)o1
i,0.81,Fc1ccc(COc2ccccc2CNc2nn[nH]n2)cc1
i,4.5,COc1ccc(C(CNC(=O)COc2ccc(F)cc2Br)N2CCCC2)cc1 (stereo not given)
i,-0.41,O=[N+]([O-])c1ccc(/C=N/n2cn[nH]c2=S)cc1
i,-0.02,O=C(O)COc1ccc(C(=O)c2ccccc2)cc1
i,-0.55,Fc1ccc(C(CCNCc2ccccn2)c2ccc(Cl)cc2)cc1 (stereo not given)
i,-0.89,Cc1cc(C)c2nc(SCc3ccc([N+](=O)[O-])cc3)nc(C)c2c1
i,-0.38,Cc1ccc(S(=O)(=O)N2CCCC2)cc1C(=O)NC1CCCCC1
i,0.08,O=C(c1cccc(C(=O)N2CCC(O)(c3ccccc3)CC2)c1)N1CCC(O)(c2ccccc2)CC1
i,3,COc1ccc(N=C2NC(=O)/C(=C/c3ccc(O)c(OC)c3)S2)cc1
i,0.53,OC(c1ccccc1)(c1ccccc1)C1CCN(C(=S)NCCc2ccccc2)CC1
i,1.8,O=[N+]([O-])c1ccc2c(c1)CNc1ccccc1O2
i,-0.84,COc1c(OC(C)=O)ccc(/C=N\NC(=O)c2ccc(Br)cc2)c1[N+](=O)[O-]
i,0.29,Cn1c(=O)[nH]c(=O)c2c1nc(N1CCN(CCO)CC1)n2Cc1ccccc1
i,-1.1,C=CCn1cc(C(=O)NCCCOCC)c(=O)c2cc(S(=O)(=O)N(CC)CC)ccc21
i,0.86,Cc1c(C)n(Cc2ccccc2)c2ncnc(NCCCN(C)C)c12
i,1.4,CC(C)(C)N/N=C/c1c(O)n(-c2ccc(Cl)cn2)c(=O)c2ccccc12
i,-1.1,CC(=O)Oc1c(Sc2ccccc2[N+](=O)[O-])c(C)nn1C(C)(C)C

Going on with the list:
KCNQ2 inh,KCNQ2 inh baseline,smiles
i,-0.19,Nc1[nH]nc2nc(NCc3ccccc3)c3c(c12)CCN(Cc1ccccc1)C3
i,-2.1,CN1CCN(C(=O)c2cc(Cl)cc(Cl)c2NC(=O)c2ccco2)CC1
i,-0.49,CC(C)(C)c1nc(N2CCN(C(=O)c3ccco3)CC2)c2nnn(Cc3ccccc3)c2n1
i,-0.44,C/C(=N/NC(=O)c1cc(C(C)C)[nH]n1)c1cccs1
i,2,C#CCOCCOCCOCCNc1nc(N2CCN(C(=O)[C@H]([C@@H](C)CC)n3cc([C@@H](N)Cc4ccc(O)cc4)nn3)CC2)nc(N2CCN(C(=O)[C@H]([C@@H](C)CC)n3cc([C@@H](N)Cc4ccc(O)cc4)nn3)CC2)n1
i,0.69,Nc1c(Cl)cc(-c2csc(N3CCCC3c3nc4cc(Cl)c(Cl)cc4n3CCCO)n2)cc1Cl (stereo not given)
i,2.1,Cc1ccc2cc3c(N)c(C(=O)N4CC(=O)Nc5ccccc54)sc3nc2c1
i,0.35,O=c1c(Cl)c(N2CCN(c3ccccc3)CC2)cnn1C12CC3CC(CC(C3)C1)C2
i,-0.25,OC(c1cccs1)c1nccc2ccccc12 (stereo not given)
i,-0.88,O=[N+]([O-])c1ccc(F)cc1OCc1cccc(S(=O)(=O)N2CCOCC2)c1
i,0.77,c1cc(C2CCCCC2)ccc1Oc1nc(N2CCOCC2)nc(N2CCOCC2)n1
i,-0.46,CC1CC(C)CN(C(=O)C(NS(=O)(=O)c2ccc3c(c2)oc(=O)n3C)C(C)C)C1 (stereo not given)
i,-0.26,O=C(N/N=C/C(Br)=C/c1ccccc1)C1CC1
i,0.57,CC(C)CCNC(=O)COC(=O)c1ccc(Br)o1
i,1.1,Cc1cc(NC(=O)Cn2c(=O)c3c(ncn3CCC(C)C)n(Cc3ccccc3)c2=O)no1
i,-0.58,C/C=C(\C)C(=O)Nc1cccc(C2=NOC3(C2)C[C@H](C(N)=O)N(C(=O)c2cc([N+](=O)[O-])cc([N+](=O)[O-])c2)C3)c1 (stereo not given in full)
i,2,COc1cc(C2Nc3cccc4cccc(c34)N2)cc(OC)c1OC(C)=O
i,2.7,O=C(O)/C(=C\c1ccccc1OC(F)F)Sc1nnc(-c2ccc(F)cc2)o1
i,0.7,CCOC(=O)c1c(Cc2ccc(Cl)cc2)c[nH]c1C
-9*,0.24*,COc1ccccc1N1CCN(C2=Nc3cccc4cccc2c34)CC1
i,0.8,COC(=O)c1ccccc1NS(=O)(=O)c1ccc(Cl)nc1
i,0.69,Cc1ccc(-n2c(SCC(=O)N3CCCCC3)nc(O)cc2=O)cc1
i,-0.61,COc1ccc(Cc2nnc(SCC(=O)N(c3ccccc3)C(C)C)n(N)c2=O)cc1
i,0.73,O=C(CN1c2cccc3cccc(c23)S1(=O)=O)Nc1ccc(S(=O)(=O)N2CCOCC2)cc1
i,0.67,O=C(c1ccccc1)c1ccc(C(=O)N2CCN(c3ccccc3)CC2)cc1

Assay outcomes (PubChem BioAssay)
